HCMV UL50-53 inh = inhibitors of HCMV UL50-UL53 interaction, biochemical, HTRF; HCMV UL50-UL53 nuclear egress complex (human cytomegalovirus); normalized percent inhibition; inhibition, % (no concentration beside the values); 190,000 compounds, 0.15% hits;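 active = both replicates at 50% or more, plus weaker picks with an unusually low signal ratio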;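 also: stock transfer was 100 nL into about 20 µL; 0% = negative control wells and 100% = wells with untagged competitor protein; inactives centre near -12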
Sa growth inh = S. aureus growth inhibition at 42 and 30 °C, primary screen, LtaS inhibitor project, RN4220, two temperatures. OD600, 20 h, 42 °C; active compounds read low. relative growth, % (test concentration not listed). 170,000 compounds, 0.53% hits;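 active = growth at 42 °C up to 50% and 20 or more points under that at 30 °C, or under 10% at both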;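 also: 300 nL library stock went into each well; scaled to the means of positive and negative controls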
GIV-Gai inh = inhibitors of GIV peptide binding to Galpha-i3, primary screen, biochemical, fluorescence polarization, FITC-GIV GBA peptide, rat Galphai3. AID 1224905, 2016. percent of control (FP), % (test concentration not listed). Guanine nucleotide-binding protein G(i) subunit alpha-3 (Rattus norvegicus), P08753. 90 min; active compounds read low; scaled: aluminum fluoride 0%, vehicle 100%. 210,000 compounds, 0.42% hits;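 active = replicate mean at 85% of control or lower, very high polarization wells dropped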;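 also: lower values mean more displacement of the GIV peptide from Galpha-i3; wells of about 15 µL received 100 nL stock; the first replicate is given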
Target sequence (P08753 whole entry, looked up): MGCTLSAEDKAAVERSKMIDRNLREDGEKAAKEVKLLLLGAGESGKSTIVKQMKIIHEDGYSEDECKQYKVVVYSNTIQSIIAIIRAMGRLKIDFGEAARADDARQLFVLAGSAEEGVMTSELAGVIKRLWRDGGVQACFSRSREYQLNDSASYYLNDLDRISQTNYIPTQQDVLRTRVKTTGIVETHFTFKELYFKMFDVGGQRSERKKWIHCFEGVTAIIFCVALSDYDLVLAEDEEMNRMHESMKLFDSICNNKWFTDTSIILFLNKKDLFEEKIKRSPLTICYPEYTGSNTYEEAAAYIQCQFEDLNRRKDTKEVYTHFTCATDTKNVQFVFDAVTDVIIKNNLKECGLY
Sa growth inh second temp = also measured in Sa growth inh; calls as there; relative growth, %; measured here: growth at 30 °C;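 optical density after 20 h as mean of two plates; 100% = untreated growth and lower means inhibition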
Starred values were filed as active, the others as inactive; . = not tested or not shown; & = joins results of further samples. The order is random (roughly 0.8% active in at least one column).

nr	molecule	HCMV UL50-53 inh	GIV-Gai inh	Sa growth inh second temp	Sa growth inh
1	CN(C(=O)CSc1nc2ncccc2[nH]1)c1ccccc1	.	99	86	94
2	CN1CCN(c2nc3c(c(=O)n(C)c(=O)n3C)n2Cc2ccccc2Br)CC1	-27	102	.	.
3	Cc1ccsc1CNCC(C)O (stereo not drawn)	-14	104	91	107
4	COc1ccc(Cl)cc1NC(=O)C1CCN(C(=O)c2cccn2-c2cccnc2)CC1	-22	107	.	.
5	CCN(CC(=O)NCc1ccc(F)cc1)C(=O)c1cc2ccccc2o1	-21	.	97	100
6	CCOC(=O)c1oc2ccccc2c1COC(=O)c1cccnc1SC	-28	.	86	99
7	Cc1oc2cc(OC(C)C(=O)O)ccc2c(=O)c1Oc1ccccc1 (stereo not drawn)	2	110	102	102
8	Cc1cccc(Cc2c(C)nc3nc(SCC(=O)NC4CCCCC4)nn3c2C)c1	2	105	91	115
9	CC(C)OC(=O)c1sc2nc(N3CCOCC3)c3c(c2c1N)CC(C)(C)OC3	3	105	.	.
10	Cc1ccc(C(=O)OCC(=O)N2CC(C)OC(C)C2)cc1 (stereo not drawn)	-21	.	86	107
11	CCC(C(=O)Nc1nn2c(-c3ccccc3)nnc2s1)c1ccccc1 (stereo not drawn)	-11	98	88	96
12	O=C(NCCCc1nc2ccccc2n1Cc1ccc(Cl)cc1)c1ccco1	8	110	88	95
13	Cc1ccc(-c2cc(C(F)(F)F)nn2-c2ccc(S(N)(=O)=O)cc2)cc1	-40&-36&-5&-82&6	98&108	90&90	97&88
14	Cc1ccc(/C=C2/CC(C)C/C(=C\c3ccc(C)o3)C2=O)o1 (stereo not drawn)	-2	206	0	26
15	CCOC(=O)c1nnc2c(-c3ccc(OC)cc3)c(C)nn2c1C	-104	107	.	.
16	Cc1ccc2c(Sc3ccc(Cl)cc3)c(C(=O)N3CCC(C)CC3)[nH]c2c1	-10	102	64	94
17	O=C(C[n+]1ccc(/C=N/O)cc1)Nc1ccc(C(=O)O)cc1	-99	103	74	85
18	Cc1oc(C(=O)O)cc1CSC(C)C(=O)O (stereo not drawn)	0	104	105	123
19	Cc1ccc(-c2cc(C(=O)N(C)Cc3c(C)nn(C)c3C)c3cc(Br)ccc3n2)cc1	.	98	79	109
20	O=C(Nc1nnc(S(=O)(=O)N2CCCc3ccccc32)s1)c1cccc(Cl)c1	-25	101	55	83

Overlap with the part before: 3 compounds; new compounds follow.
nr	molecule	HCMV UL50-53 inh	GIV-Gai inh	Sa growth inh second temp	Sa growth inh
18	Cc1oc(C(=O)O)cc1CSC(C)C(=O)O (stereo not drawn)	0	104	105	123
19	Cc1ccc(-c2cc(C(=O)N(C)Cc3c(C)nn(C)c3C)c3cc(Br)ccc3n2)cc1	.	98	79	109
20	O=C(Nc1nnc(S(=O)(=O)N2CCCc3ccccc32)s1)c1cccc(Cl)c1	-25	101	55	83
21	Cc1sc2ncnc(Nc3ccc(F)cc3)c2c1S(=O)(=O)N1CCCCC1	-6	106	.	.
22	COc1ccc(CNC(=O)C(=O)Nc2cc(Cl)ccc2OC)cc1	17	105	101	104
23	CC1CCCC(C)N1CCC(=O)NN (stereo not drawn)	-2	.	99	111
24	COc1cc(NS(=O)(=O)c2ccc3c(c2)CCN3C(=O)CCC(=O)O)c(C(=O)O)cc1OC	-1	96	93	92
25	O=C1C2C3C=CC(O3)C2C(=O)N1c1ccc(F)cc1 (stereo not drawn)	-5	122	.	.
26	Cc1noc(NS(=O)(=O)c2ccc(NC(=O)c3ccccc3)cc2)c1C	-24	.	88	99
27	CCN1CCN(C(c2ccc(Br)cc2)c2nnc(-c3ccccc3)o2)CC1 (stereo not drawn)	-18	97	.	.
28	O=C(O)c1[nH]c2ccccc2c1Br	3	.	106	87
29	COc1ccccc1NC(=O)COC(=O)C1(c2ccc(F)cc2)CCCC1	1	.	97	128
30	O=C(Nc1ccc(Cn2cnc(-c3nc(-c4ccc(F)cc4)no3)c2)cc1)c1ccc(Br)cc1	-17	109	.	.
31	COc1ccc(NC(=O)C(=O)NCC(c2ccc3c(c2)OCO3)N2CCN(C)CC2)cc1 (stereo not drawn)	.	100	91	102
32	Cc1[nH]c2ccc(-c3nnc(SCC(=O)NCCc4nc5ccccc5[nH]4)o3)cc2c1C	-2	101	.	.
33	COc1ccc(/C=C2/SC(=O)N(CC(=O)NN3CCN(C)CC3)C2=O)cc1OC	-69	100	.	.
34	CCCOc1ccc(-c2nc(SCC(=O)c3ccc(Cl)cc3)n[nH]2)cc1	-4	107	102	97
35	CCC1CCCCN1CC(=O)Nc1cc(C)c2c(=O)oc3ccccc3c2n1 (stereo not drawn)	-11	105	90	97
36	C=CCc1ccccc1OCC(N)=O	-17	98	73	107
37	CCCn1c(SCc2nc(-c3ccc(OC)cc3OC)no2)nnc1-c1ccc(Cl)cc1	-1	101	77	88
38	Cc1ccc(-n2nc(C)c3c(C(=O)NCCc4ccc(S(N)(=O)=O)cc4)cc(C)nc32)cc1	.	112	97	107
39	Cc1cc(C)cc(Oc2c(C)oc3c(CN4CCC(C)CC4)c(O)ccc3c2=O)c1	-9	101	95	91
40	COc1ccc(/C=C2/SC(=O)N(CCCC(=O)Nc3ccccc3O)C2=O)cc1	-42	106	82	82
41	Cc1ccc(C(=O)N2CCN(c3cccc(Cl)c3)CC2)cc1-n1c(C)nc2cccnc21	.	108	87	99
42	Cc1nnc(SC2CCN(S(=O)(=O)c3cccc(C(F)(F)F)c3)CC2)s1	5	102	88	98
43	Cc1ccc2c(c1)N(C(=O)CCC(=O)Nc1ccccc1Cl)CC(C)O2 (stereo not drawn)	19	103	89	111
44	COCCNC(=O)C(=O)NCC(c1cccnc1)N1CCN(c2ccccc2OC)CC1 (stereo not drawn)	-7	104	93	108
45	Cc1ccc(NC(=O)CN2C(=O)C3(OCCCO3)c3ccccc32)cc1C	13	104	102	110
46	CN(C)c1cccc(C(=O)OCc2cc(Cl)cc3c2OCOC3)c1	-4	.	87	93
47	CCC(C)c1ccccc1NC(=O)CNc1ccc(F)cc1 (stereo not drawn)	-5	.	100	81
48	COC(=O)CCNc1n[nH]c(=O)[nH]c1=O	-2	108	98	94
49	COc1cccc(C(=O)Nc2ccc(S(=O)(=O)Nc3nc(C)cc(C)n3)cc2)c1	-9	103	.	.
50	COc1ccccc1-c1cc(=O)n(CC(=O)O)c2c1CCCC2	.	101	88	91
51	CC(C)C(N)c1ccccc1 (stereo not drawn)	-4	.	104	95
52	COc1ccc(NC(=O)c2cccc(COc3ccc(Cl)cc3)c2)cn1	-13	101	.	.
53	Cc1ccc(N2CCN(c3cnn(-c4nc5ccccc5s4)c(=O)c3N(C)C)CC2C)cc1 (stereo not drawn)	.	100	93	96
54	CC(=O)N1CCCc2ccc(NS(=O)(=O)c3ccc(C)c(C)c3)cc21	.	104	93	83
55	CC(C)(C)c1cc(C(F)(F)F)c(C#N)c(=O)[nH]1	0	105	.	.
56	C=CCN1C(=O)c2ccccc2Sc2ccc(C(=O)N3CCN(c4ccccc4OC)CC3)cc21	5	100	86	87
57	CC1(C)CC(=O)C=C(Sc2nc3ccccc3o2)C1	-28	99	88	98
58	COc1cc(NC(=O)OC(C)(C)C)cc(OC)c1OC	0	101	82	102
59	O=C(CNC1CCCC1)Nc1ccc(N2CCCC2)cc1	-6	103	105	96
60	CCOC(=O)c1ccc(NC(=O)c2nc(SCc3ccccc3F)ncc2Cl)cc1	1	103	94	113

Copied from above, entries 41–43
nr	molecule	HCMV UL50-53 inh	GIV-Gai inh	Sa growth inh second temp	Sa growth inh
41	Cc1ccc(C(=O)N2CCN(c3cccc(Cl)c3)CC2)cc1-n1c(C)nc2cccnc21	.	108	87	99
42	Cc1nnc(SC2CCN(S(=O)(=O)c3cccc(C(F)(F)F)c3)CC2)s1	5	102	88	98
43	Cc1ccc2c(c1)N(C(=O)CCC(=O)Nc1ccccc1Cl)CC(C)O2 (stereo not drawn)	19	103	89	111

Next section:
nr	molecule	HCMV UL50-53 inh	GIV-Gai inh	Sa growth inh second temp	Sa growth inh
61	N/N=C(/C(=O)c1ccccc1)c1ccccc1	-78	.	98	97
62	O=C(CC1CCCCC1)N1CCC(N2CCN(Cc3cccc(F)c3)C(=O)C2=O)CC1	-18	96	.	.
63	COc1cc(CNn2c(-c3ccc(Br)cc3)nc3ccccc3c2=O)cc(OC)c1OC	-15	106	.	.
64	O=C(Cn1nnc2ccccc21)Nc1ccc2ccccc2c1	-23	.	69	105
65	O=C(/C=C/c1ccc2c(c1)OCO2)NC1=NCCS1	-32	.	102	108
66	CCc1ccc(NC(=O)CCN2C(=O)c3ccccc3C2=O)cc1	-10	101	104	111
67	COc1ccc(C(=O)NC(CC(=O)O)c2ccc(OC)cc2)cc1 (stereo not drawn)	12	105	96	103
68	Cc1cc(C)cc(NC(=O)CSc2nnc(CNC(=O)c3c(F)cccc3Cl)o2)c1	6	107	85	102
69	N#C/C(N=Cc1ccc(Cl)cc1)=C(\C#N)NC(=O)Nc1ccc(OC(F)(F)F)cc1	-26	107	73	86
70	CN(Cc1ccccc1)C(=O)CCc1nc(CN2CCN(S(=O)(=O)Cc3ccccc3)CC2)no1	-4	104	.	.
71	COc1cc(C2Nc3cc(Cl)ccc3O2)cc(OC)c1OC (stereo not drawn)	-27	103	66	89
72	CC1CCCCN1S(=O)(=O)c1ccc2c(c1)CCC(=O)N2CC(=O)N1CCCC1 (stereo not drawn)	-18	103	.	.
73	COC(=O)C1=C(OC(=O)CN2C(=O)c3ccccc3C2=O)c2ccccc2S(=O)(=O)N1C	-34	98	.	.
74	COc1ccc(C2c3c(n(C)c4ccccc34)C(=O)N2CC(=O)Nc2cccc(C)c2C)cc1 (stereo not drawn)	-4	109	.	.
75	COc1ccc(NC(=O)CN2C(=O)C(C)(C)c3ccccc32)cc1OC	4	100	.	.
76	CCOC(=O)N1CCC(NC(=O)Nc2ccc(C)c(Cl)c2)CC1	1	108	104	112
77	CCCCn1cc(S(=O)(=O)c2ccc(C)c(C)c2)c(=O)c2cc(F)c(N3CCN(C)CC3)cc21	.	105	101	109
78	O=C(COc1ccc(Cl)cc1)NCCc1csc(-c2ccc(F)cc2)n1	.	105	89	91
79	N#Cc1ccccc1OCC(=O)N(Cc1ccccc1)C1C=CS(=O)(=O)C1 (stereo not drawn)	-11	.	87	109
80	COc1ccc2[nH]c(C(=O)N(C)c3ccc(F)cc3F)cc2c1	-32	103	89	118
81	CCC(=O)Nc1nc2ccc(CC)cc2s1	-20	.	79	99
82	CCOC(=O)c1sc2ccccc2c1S(=O)(=O)Nc1ccc(CC)cc1	.	101	102	117
83	COc1c2c(nc3occc13)C(CC=C(C)C)(OC)C(OC(C)=O)CC2 (stereo not drawn)	4	105	101	67
84	CC(C)CCNC(=O)c1ccc2c(=O)n(-c3ccc(F)cc3)c(SCC(=O)c3c[nH]c4ccccc34)nc2c1	-14	115	.	.
85	COc1cccc(-n2cc(C(=O)N(Cc3ccccc3)C(C)C)c3ccccc3c2=O)c1	.	112	82	98
86	CN1C(=O)c2ccc(NC(=O)c3cccc4ccccc34)cc2C1=O	.	103	83	100
87	CCCNC(=O)C1CCC(CNS(=O)(=O)c2ccc3c(c2)N(C(C)=O)CCO3)CC1 (stereo not drawn)	-14	101	86	96
88	COc1cc(OCc2ccccc2)ccc1CN1CCN(c2ccccn2)CC1	-15	104	83	94
89	O=C(NCCc1ccccc1)c1ccc2c(c1)N(Cc1ccccc1F)C(=O)c1ccccc1S2=O (stereo not drawn)	-27	100	87	89
90	Brc1cccc(-c2nnc3sc(CN4CCc5ccccc5C4)cn23)c1	.	101	46	101
91	CCOc1ccccc1NC(C)=O	-16	102	84	98
92	N#CC1=C(N)C(C#N)(C#N)C(c2cccnc2)C2CSCC=C12 (stereo not drawn)	-40	129	75	88
93	COC(=O)c1cc2sc(Cl)cc2[nH]1	.	102	77	64
94	COc1ccccc1CNC(=O)c1nn(-c2ccc(C)cc2)c(=O)c2c1c1ccccc1n2C	15	104	96	104
95	COc1cccc(C(=O)CS)c1	19	90	104	87
96	COc1cccc(CNC(=O)c2c(C)nn(-c3cccc(C)c3)c2-n2cccc2)c1	.	96	76	86
97	COc1ccccc1N1CCN(C(=O)c2cn(C3CCCC3)c(=O)c3c2c2ccccc2n3C)CC1	-27	100	.	.
98	COC(=O)c1ccc2c(=O)n(CC(=O)N3CCN(c4ccccn4)CC3)c(=S)[nH]c2c1	-16	106	.	.
99	C=CCSc1nnnn1-c1ccc(OC(=O)C=C(C)C)cc1	9	106	102	107
100	O=C(NC1CCCC1)c1cnn(-c2ccccc2)c1	-20	106	.	.
101	NS(=O)(=O)c1cc(OCC(F)(F)F)ccc1OCC(F)(F)F	-18	100	88	89
102	Nc1nnc(CCCN2C(=O)c3ccccc3C2=O)s1	-14	103	81	99
103	O=C(O)/C=C/C=C/c1ccc(Cl)cc1	-22	104	122	122
104	O=C(NC1CC(=O)N(c2ccccc2)C1)c1ccc(S(=O)(=O)N2CCOCC2)cc1 (stereo not drawn)	.	92	86	90
105	Cc1ccc(-c2nc(CSc3nc4ccccc4n4c(C)nnc34)c(C)o2)cc1	-15	101	.	.

Bioassay records (PubChem)
